NOMO-1 viab: STK33 inhibitor candidate reducing NOMO-1 cell viability; NOMO-1 AML viability, CellTiter-Glo luminescence, 72 h; inhibition, % (test concentration not listed); 7.5% of 37,000 active; AID 2330;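 active = most replicates above 80%; inconclusive = exactly half above 80%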;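 also: wells of about 30 µL received 25 nL stock; 0% = median of vehicle wells and 100% = reference inhibitor level; the first replicate is given; inactives centre near 10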
The depositor's hits bear a star; ? = inconclusive.

SMILES | NOMO-1 viab
Cc1noc(C)c1S(=O)(=O)Nc1ccc2c(c1)C(=O)N([C@H](C)CO)C[C@@H](C)[C@@H](CN(C)S(=O)(=O)c1cn(C)cn1)O2 | -8
C[C@H](CO)N1C[C@H](C)[C@H](CN(C)S(C)(=O)=O)Oc2ccc(NC(=O)Cc3ccccc3)cc2C1=O | 19
COc1ccc(CN(C)C[C@H]2Oc3ccc(NC(=O)Nc4ccc(C(F)(F)F)cc4)cc3CC(=O)N([C@H](C)CO)C[C@H]2C)cc1 | 127*
COc1ccc(C)cc1CN1CCC(CNC(=O)Nc2cc(Cl)ccc2C)CC1 | 122*
C[C@H]1CN([C@@H](C)CO)C(=O)c2cccc(NS(=O)(=O)c3ccc(F)cc3)c2O[C@@H]1CN(C)Cc1ccccc1 | -4
Cc1ccc(S(=O)(=O)N(C)C[C@H]2Oc3c(NS(=O)(=O)c4ccc(F)cc4)cccc3C(=O)N([C@@H](C)CO)C[C@@H]2C)cc1 | -9
C[C@H](CO)N1C[C@H](C)[C@@H](CN(C)Cc2ccc(C(=O)Nc3ccccc3N)cc2)Oc2c(NS(=O)(=O)c3cccs3)cccc2C1=O | 24
Cn1nc(-c2cccc(C3OCCO3)c2)c(=O)n(C)c1=S | -3
COc1ccc(NC(=O)N(C)C[C@H]2Oc3c(NC(=O)C4CCCCC4)cccc3C(=O)N([C@H](C)CO)C[C@H]2C)cc1 | 1
Cc1ccc(S(=O)(=O)N2C(=O)CCC2C(=O)Nc2ccc(Cl)c(Cl)c2)cc1 (stereo unspecified) | 28
O=C(CSc1nc(-c2ccc(Cl)cc2)cs1)Nc1cccc([N+](=O)[O-])c1 | 8
CNC[C@H]1Oc2c(NS(=O)(=O)c3cccs3)cccc2C(=O)N([C@H](C)CO)C[C@H]1C | 0
C[C@@H]1CN([C@@H](C)CO)C(=O)c2cccc(NS(=O)(=O)c3ccccc3)c2O[C@H]1CN(C)C(=O)NC1CCCCC1 | 13
COC(=O)c1cc(OC)c(OC)cc1NC(=O)COc1ccc(C)cc1Br | 7
Cc1noc(C)c1NC(=O)Nc1ccc2c(c1)C(=O)N([C@H](C)CO)C[C@@H](C)[C@@H](CN(C)S(=O)(=O)c1ccc(Cl)cc1)O2 | -8
Cc1ccc([N+](=O)[O-])cc1NC(=O)c1cc(S(=O)(=O)N2CCOCC2)c(Cl)cc1Cl | 37
O=C(CCn1cnc2ccccc2c1=O)Nc1ccc(S(=O)(=O)N2CCCC2)cc1 | -3
Cn1c(=O)c2c(nc(SCCCC#N)n2Cc2c(F)cccc2Cl)n(C)c1=O | 6
C[C@@H]1CN([C@H](C)CO)C(=O)c2cccc(NC(=O)CCCCCC(=O)Nc3ccccc3N)c2O[C@@H]1CN(C)C(=O)Nc1ccc2c(c1)OCO2 | 23
C[C@H]1CN([C@@H](C)CO)C(=O)Cc2cc(NC(=O)Nc3ccccc3)ccc2O[C@H]1CN(C)S(=O)(=O)c1ccc(Cl)cc1 | 113*
C[C@H](CO)N1C[C@H](C)[C@H](CN(C)C)Oc2ccc(NC(=O)Nc3ccc(F)cc3)cc2C1=O | -6
Cc1ccc(S(=O)(=O)N(C)C[C@@H]2Oc3ccc(NC(=O)NC4CCCCC4)cc3C(=O)N([C@H](C)CO)C[C@H]2C)cc1 | -16
Cc1ccc(S(=O)(=O)N(C)C[C@@H]2Oc3ccc(NS(=O)(=O)c4c(C)noc4C)cc3CC(=O)N([C@H](C)CO)C[C@@H]2C)cc1 | 14
C[C@@H]1CN([C@@H](C)CO)C(=O)c2cccc(NC(=O)Nc3ccc(F)cc3)c2O[C@@H]1CN(C)CC1CCCCC1 | 5
CC(=O)c1cccc(NC(=O)Nc2cccc(S(=O)(=O)N3CCOCC3)c2)c1 | -1

Quoted at random: 2 records from the list, in no set order.
SMILES | NOMO-1 viab
C[C@H]1CN([C@@H](C)CO)C(=O)Cc2cc(NC(=O)Nc3ccccc3)ccc2O[C@H]1CN(C)S(=O)(=O)c1ccc(Cl)cc1 | 113*
C[C@H](CO)N1C[C@H](C)[C@@H](CN(C)Cc2ccc(C(=O)Nc3ccccc3N)cc2)Oc2c(NS(=O)(=O)c3cccs3)cccc2C1=O | 24

The listing continues.
SMILES | NOMO-1 viab
C[C@@H]1CN([C@@H](C)CO)C(=O)Cc2cc(NS(=O)(=O)c3cccs3)ccc2O[C@@H]1CN(C)S(=O)(=O)c1ccc(F)cc1 | 5
O=C(Cn1ccc([N+](=O)[O-])n1)N1CCOCC1 | 24
C[C@H]1CN([C@@H](C)CO)C(=O)Cc2cc(NC(=O)CCCCCC(=O)Nc3ccccc3N)ccc2O[C@H]1CN(C)Cc1ccc(-c2ccccc2)cc1 | 142*
COc1ccc(S(=O)(=O)N(C)C[C@H]2Oc3ccc(NC(=O)CCN4CCOCC4)cc3C(=O)N([C@@H](C)CO)C[C@H]2C)cc1 | -2
C[C@@H]1CN([C@H](C)CO)C(=O)Cc2cc(NC(=O)C3CC3)ccc2O[C@H]1CN(C)CC1CCCCC1 | -1
COc1ccc(S(=O)(=O)N(C)C[C@H]2Oc3ccc(NS(=O)(=O)c4ccccc4)cc3CC(=O)N([C@@H](C)CO)C[C@@H]2C)cc1 | 6
COCC(O)CSc1nc(C)[nH]c1[N+](=O)[O-] (stereo unspecified) | -5
Cc1cccc(Cl)c1NC(=S)NC(Cc1ccccc1)c1ccccc1 (stereo unspecified) | 16
COc1ccc(NC(=O)Nc2cccc3c2O[C@H](CN(C)C(=O)Nc2ccc(C(F)(F)F)cc2)[C@H](C)CN([C@@H](C)CO)C3=O)cc1 | 11
N#Cc1c(-c2cccnc2)c2c([nH]c1=O)-c1ccccc1CC2 | -24
CCCN(CCC)C(=O)c1cnn(-c2ccccc2)c1NC(=O)c1ccccc1 | 10
N#Cc1cccc(Cn2cc(C(F)(F)F)ccc2=O)c1 | -22
COC(=O)c1c(NC(=O)c2c(OC)cccc2OC)sc2c1C(C(=O)OC)CC2 (stereo unspecified) | 13
COc1ccc(S(=O)(=O)Nc2ccc3c(c2)C(=O)N([C@H](C)CO)C[C@@H](C)[C@H](CN(C)C(=O)Nc2cccc4ccccc24)O3)cc1 | 15
O=C(c1ccc(O)cc1)c1c(O)cc(O)c([C@@H]2O[C@H](CO)[C@@H](O)[C@H](O)[C@H]2O)c1O | 1
Cc1noc(C)c1NC(=O)Nc1ccc2c(c1)CC(=O)N([C@H](C)CO)C[C@H](C)[C@H](CN(C)CC1CC1)O2 | 15
COc1ccc(NC(=O)C2=C(C)NC(=O)NC2c2cc(OC)ccc2OC)c(OC)c1 (stereo unspecified) | -6
CCCCc1c(O)nc(SCC(=O)N2CCCCC2)[nH]c1=O | -2
CC(=O)c1cccc(NC(=O)CN(C2CCCCC2)S(=O)(=O)c2ccc(Br)cc2)c1 | 37
Cc1ccc(S(=O)(=O)N(C)C[C@H]2Oc3ccc(NC(=O)CCN4CCOCC4)cc3CC(=O)N([C@H](C)CO)C[C@H]2C)cc1 | 4
Cc1cc(C(=O)Nc2cccc3c2O[C@H](CN(C)Cc2ccc(C(=O)O)cc2)[C@@H](C)CN([C@H](C)CO)C3=O)n(C)n1 | 1
C[C@@H]1CCCCO[C@H](CN(C)CC2CCCCC2)[C@@H](C)CN([C@H](C)CO)C(=O)c2cc(NC(=O)Cc3ccccc3)ccc2O1 | 20
CNC[C@@H]1Oc2ccc(NC(=O)Cc3cn(C)c4ccccc34)cc2CC(=O)N([C@H](C)CO)C[C@H]1C | 19
Cc1ccccc1NC(=O)COc1ccc(N2CC(C(N)=O)CC2=O)cc1 (stereo unspecified) | -3
COc1ccc(NC(=O)c2ccco2)cc1NC(=O)C(C)(C)Oc1ccc(Cl)cc1 | 19
Cc1noc(C)c1S(=O)(=O)Nc1ccc2c(c1)C(=O)N([C@H](C)CO)C[C@@H](C)[C@H](CN(C)Cc1ccc(-c3ccccc3)cc1)O2 | 22
COc1ccc(S(=O)(=O)Nc2cccc3c2O[C@H](CN(C)Cc2ccncc2)[C@@H](C)CN([C@H](C)CO)C3=O)cc1 | 13
C[C@H]1CN([C@@H](C)CO)C(=O)Cc2cc(NC(=O)CCN3CCOCC3)ccc2O[C@@H]1CN(C)C(=O)NC1CCCCC1 | -9
Cc1ccc(-c2noc(CCC(=O)NC(C)(C)C)n2)cc1 | 18
CC(C)NC(=O)Nc1ccc2c(c1)C(=O)N([C@@H](C)CO)C[C@H](C)[C@H](CN(C)Cc1ccncc1)O2 | 27
COc1cccc(C(O)c2nccn2C)c1OC (stereo unspecified) | 7
C[C@@H]1CN([C@H](C)CO)C(=O)Cc2cc(NC(=O)CCCCCC(=O)Nc3ccccc3N)ccc2O[C@@H]1CN(C)S(C)(=O)=O | 23
C[C@H](CO)N1C[C@H](C)[C@@H](CN(C)Cc2ccc3c(c2)OCO3)Oc2ccc(NC(=O)Nc3ccc(C(F)(F)F)cc3)cc2C1=O | 11
O=C(NCCCN1CCCC1=O)c1cc2ccccc2oc1=O | -1
CC1(C)Cc2nc3sc4c(SCC(=O)NCc5ccccc5)ncnc4c3cc2CO1 | 119*
C[C@@H]1CN([C@@H](C)CO)C(=O)Cc2cc(NS(=O)(=O)c3ccc(F)cc3)ccc2O[C@@H]1CN(C)C(=O)Nc1cccc2ccccc12 | 20
C[C@@H]1CCCCO[C@@H](CN(C)Cc2ccc(C(F)(F)F)cc2)[C@@H](C)CN([C@H](C)CO)C(=O)c2cc(NC(=O)Nc3ccccc3)ccc2O1 | 40
COC(=O)c1c(-c2ccc(Br)cc2)csc1NC(=O)C1CCCCC1C(=O)O (stereo unspecified) | 13
COc1cccc(/C=N/O)c1O | 8
C[C@H](CO)N1C[C@H](C)[C@H](CN(C)S(=O)(=O)c2ccccc2)Oc2ccc(NC(=O)Cc3ccccc3)cc2C1=O | 19
CN1CCN(c2ncc3c(=S)[nH]c(=S)[nH]c3n2)CC1 | 5
CCc1ccc(CCC(=O)Nc2cc(C(F)(F)F)ccc2Cl)o1 | 12
C[C@H](CO)N1C[C@H](C)[C@@H](CN(C)S(=O)(=O)c2ccc(F)cc2)Oc2ccc(NC(=O)C3CC3)cc2C1=O | 12
COc1ccc(S(=O)(=O)Nc2cccc3c2O[C@@H](CN(C)C)[C@H](C)CN([C@H](C)CO)C3=O)cc1 | -10
C[C@H](CO)N1C[C@H](C)[C@@H](CN(C)C(=O)Nc2ccccc2)Oc2c(NC(=O)C3CC3)cccc2C1=O | 3
Cc1nn(C)c(C)c1CN1CCN(C(=S)Nc2ccc(S(N)(=O)=O)cc2)CC1 | -4
O=C(CCN1C(=O)C2C3C=CC(C4CC34)C2C1=O)Nc1ccc(F)cc1 (stereo unspecified) | 11
COc1ccc(OC)c(N(CC(=O)Nc2cccc(Cl)c2Cl)S(C)(=O)=O)c1 | 32
COc1ccc(NC(=O)Nc2ccc3c(c2)C(=O)N([C@H](C)CO)C[C@H](C)[C@H](CN(C)C(=O)NC(C)C)O3)cc1 | 13
CC1CCC(C(C)C)C(N(Cc2ccccc2)C(=O)c2cccs2)C1 (stereo unspecified) | ?

Further records follow.
SMILES | NOMO-1 viab
COc1ccc(C(=O)Oc2c(S(=O)(=O)c3ccccc3)c(C)nn2-c2ccccc2)cc1 | 116*
CC(C)NC(=O)Nc1ccc2c(c1)C(=O)N([C@@H](C)CO)C[C@@H](C)[C@H](CN(C)C(=O)Nc1ccc(F)cc1)O2 | 10
C[C@@H]1CN([C@@H](C)CO)C(=O)c2cccc(NS(=O)(=O)c3cccs3)c2O[C@H]1CN(C)C(=O)Nc1ccccc1 | -10
C[C@H](CO)N1C[C@H](C)[C@H](CN(C)S(C)(=O)=O)Oc2c(NC(=O)c3ccncc3)cccc2C1=O | -18
C[C@@H]1CN([C@@H](C)CO)C(=O)c2cccc(NC(=O)c3nc4ccccc4s3)c2O[C@@H]1CN(C)Cc1ccc(C(F)(F)F)cc1 | 99*
C[C@@H]1CN([C@@H](C)CO)C(=O)c2cccc(NS(C)(=O)=O)c2O[C@H]1CN(C)Cc1ccc2c(c1)OCO2 | -18
COc1ccc(S(=O)(=O)N(C)C[C@H]2Oc3c(NC(=O)C4CCOCC4)cccc3C(=O)N([C@H](C)CO)C[C@@H]2C)cc1 | 3
O=C(NCCCN1CCOCC1)c1cccc([N+](=O)[O-])c1 | 11
CCC(=O)c1ccc(OCC(O)Cn2nc(C)cc2C)cc1 (stereo unspecified) | -21
CN(C)CCCN1C(=O)C(=O)C(C(=O)c2cccs2)C1c1ccc(Cl)c(Cl)c1 (stereo unspecified) | -2
COc1ccc(S(=O)(=O)Nc2ccc3c(c2)C(=O)N([C@H](C)CO)C[C@H](C)[C@H](CN(C)S(=O)(=O)c2ccc(Cl)cc2)OCCCC[C@@H](C)O3)cc1 | 107*
CCOC(=O)C1CCCCN1Cc1ccco1 (stereo unspecified) | 30
COc1ccc(NC(=S)NCc2cccnc2)cc1OC | 36
C[C@H]1CN([C@@H](C)CO)C(=O)c2cccc(NS(=O)(=O)c3ccc(F)cc3)c2O[C@H]1CN(C)Cc1ccc(C(F)(F)F)cc1 | 13
Cc1cc(C)nc(/N=C2\NC(=O)CC(C(=O)O)N2c2ccc(F)c(Cl)c2)n1 (stereo unspecified) | -8
C[C@H]1CN([C@@H](C)CO)C(=O)Cc2cc(NS(=O)(=O)c3ccc(F)cc3)ccc2O[C@@H]1CN(C)S(=O)(=O)c1ccc(F)cc1 | 31
C[C@@H]1CN([C@@H](C)CO)C(=O)c2cccc(NC(=O)Nc3ccc(F)cc3)c2O[C@H]1CN(C)C(=O)Nc1ccc2c(c1)OCO2 | 10
CCN(CC(N)=O)S(=O)(=O)c1ccc2ccccc2c1 | -1

Given field by field: entries from further up
> CCC(=O)c1ccc(OCC(O)Cn2nc(C)cc2C)cc1 (stereo unspecified)
- NOMO-1 viab: -21
> CN(C)CCCN1C(=O)C(=O)C(C(=O)c2cccs2)C1c1ccc(Cl)c(Cl)c1 (stereo unspecified)
- NOMO-1 viab: -2
> COc1ccc(S(=O)(=O)Nc2ccc3c(c2)C(=O)N([C@H](C)CO)C[C@H](C)[C@H](CN(C)S(=O)(=O)c2ccc(Cl)cc2)OCCCC[C@@H](C)O3)cc1
- NOMO-1 viab: 107*
> CCOC(=O)C1CCCCN1Cc1ccco1 (stereo unspecified)
- NOMO-1 viab: 30

Not all compounds are listed; count on the stated rates, not on these rows.
